Screening results: PubChem, Broad Institute
MITF inh = inhibitors of MITF, primary screen, MITF inhibitor project, cell-based, luminescence; TRPM1 promoter luciferase, 24 h; inhibition, % (no concentration beside the values); AID 2240, 2010; 37,000 tested, 0.28% active;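 active = most replicates at 85% or more, or half of them and the mean; inconclusive = half reach 85% but not the mean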;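 also: human melanocyte line stably carrying TRPM1 promoter luciferase reporter; 0% = vehicle wells and 100% = a positive control; the first replicate is given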
Shh pathway inh = Hedgehog pathway signaling inhibitors, primary screen, luminescence, Shh-LIGHT2 cells, Gli-luciferase; inhibition, % (test concentration not listed); Shh-LIGHT2 Gli-luciferase reporter, 30 h; 22,000 tested, 2.1% active;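 active = replicate mean of 65% or more; inconclusive = mean lower but half the replicates past it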;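 also: pathway switched on by Shh-conditioned medium diluted 1 in 25 in low serum; 100 nL library stock added to about 40 µL; 0% = median of neutral wells and 100% = positive control level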
YB-1 expression = inhibitors of YB-1 gene expression, primary screen, cell-based, fluorescence; U2OS, qRT-PCR YB-1 vs CDIP delta delta Cp, 16 h; stronger effect = higher value; zero = DMSO, each unit about twofold; delta delta Cp (YB-1 minus CDIP) (no concentration beside the values); 30,000 tested, 0.37% active;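 active = delta delta Cp rounded down to an integer at or above 3, about 3 SD of DMSO wells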;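 also: higher means less YB-1 transcript or more CDIP transcript relative to DMSO; stock transfer was 100 nL into about 100 µL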
PD-1 reversal = activators reversing PD-1 mediated T-cell inhibition, primary screen, luminescence, primary human CD4 T cells, PD-L1 beads; CellTiter-Glo 96 h; activation, % (test concentration not listed); 29,000 tested, under 10 active; AID 2316, 2010;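 active = replicate mean of 50% or more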;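 also: 0% = median vehicle wells and 100% = positive control; 100 nL library stock added to about 50 µL; numbers are from one replicate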
Numbers without * were called inactive; ? = inconclusive; / = no result given. These rows are one share of the data. The share of hits here may be higher or lower than overall.

SMILES	MITF inh	Shh pathway inh	YB-1 expression	PD-1 reversal
C[C@@H]1CCCCO[C@H](CN(C)Cc2ccc(C(F)(F)F)cc2)[C@@H](C)CN([C@H](C)CO)C(=O)c2cc(NC(=O)CCC(F)(F)F)ccc2O1	11	/	0.026	0.6
C[C@@H]1CN([C@@H](C)CO)C(=O)c2cc(N(C)C)ccc2O[C@H]1CN(C)S(=O)(=O)c1ccccc1	-1	-7	0.035	-1.3
Cc1cc(C(=O)Nc2cccc3c2O[C@H](CN(C)CC2CC2)[C@@H](C)CN([C@H](C)CO)C3=O)n(C)n1	-8	40	-0.32	0.4
CS(=O)(=O)N(CC(=O)NC1CC2CCC1C2)c1cccc(C(F)(F)F)c1 (stereo unspecified)	-1	/	/	-0.4
Cc1ccc(-n2c(SCC(N)=O)nnc2-c2cccs2)cc1	4	/	/	0.9
Cc1ccc(S(=O)(=O)Nc2cccc3c2O[C@@H](CN(C)Cc2ccc(C(=O)O)cc2)[C@@H](C)CN([C@H](C)CO)C3=O)cc1	5	-31	1.2	3.5
COc1ccc(NC(=O)Nc2ccc3c(c2)C(=O)N([C@@H](C)CO)C[C@H](C)[C@@H](CN(C)C(=O)Nc2ccccc2)O3)cc1	-14	/	0.067	-0.1
C[C@@H]1CN([C@@H](C)CO)C(=O)c2cc(NC(=O)CCCN(C)C)ccc2O[C@H]1CN(C)CC1CCCCC1	-9	-32	-0.56	0.6
Cc1ccc(S(=O)(=O)Nc2ccc3c(c2)CC(=O)N([C@@H](C)CO)C[C@H](C)[C@H](CN(C)S(C)(=O)=O)O3)cc1	-4	/	-0.15	0.4
Cc1noc(C)c1NC(=O)N(C)C[C@H]1Oc2ccc(NC(=O)Cc3ccccc3)cc2CC(=O)N([C@@H](C)CO)C[C@@H]1C	-21	/	0.067	0.1
CSc1ccccc1NC(=O)CN(c1cc(Cl)ccc1C)S(C)(=O)=O	1	/	/	1.8
Cc1ccc(S(=O)(=O)N(C)C[C@H]2Oc3ccc(NC(=O)Cc4cn(C)c5ccccc45)cc3C(=O)N([C@H](C)CO)C[C@H]2C)cc1	29	22	-0.26	-1.9
C[C@H](CO)N1C[C@H](C)[C@H](CN(C)Cc2ccc(Cl)c(Cl)c2)Oc2c(NS(C)(=O)=O)cccc2C1=O	-22	?	0.0047	-5.8
COc1ccc(CN(C)C[C@H]2Oc3c(NC(=O)Nc4cccc5ccccc45)cccc3C(=O)N([C@H](C)CO)C[C@H]2C)cc1	-3	-8	-0.0053	-1.3
C[C@H]1CN([C@@H](C)CO)C(=O)Cc2cc(NC(=O)Nc3ccc(F)cc3)ccc2O[C@H]1CN(C)Cc1ccc(-c2ccccc2)cc1	-10	1	0.092	0.3
CCCn1c(SCc2nc(-c3cccs3)no2)nnc1-c1ccncc1	5	/	/	1.5
COc1ccc(CN(C)C[C@@H]2Oc3ccc(NS(=O)(=O)c4ccc(F)cc4)cc3CC(=O)N([C@H](C)CO)C[C@H]2C)cc1	6	/	-0.15	/
CS(=NC(=O)Nc1ccc(Cl)cc1)c1sc(Cl)c2c1C(=O)CCC2 (stereo unspecified)	3	53	-0.17	-1.8
Cc1c(Cl)cccc1NC(=O)CSc1nnc(-c2ccc(NC(=O)c3ccccc3Br)cc2)n1C	4	/	/	-0.1
C[C@H](CO)N1C[C@H](C)[C@@H](CN(C)Cc2ccncc2)Oc2c(NC(=O)Nc3ccc(C(F)(F)F)cc3)cccc2C1=O	-11	-68	0.51	-3.7
C[C@@H]1CN([C@@H](C)CO)C(=O)c2cc(NC(=O)Nc3ccc4c(c3)OCO4)ccc2O[C@H]1CN(C)C(=O)Nc1ccccc1	-4	-9	-0.14	0.3
CCOC(=O)c1ccc(NC(=O)c2ccco2)cc1	17	-115	0.074	1.6
C[C@@H]1CN([C@@H](C)CO)C(=O)c2cccc(NS(=O)(=O)c3ccc(F)cc3)c2O[C@@H]1CN(C)C(=O)Nc1ccccc1	4	-42	-0.32	0.3
CC(C)NC(=O)Nc1cccc2c1O[C@H](CN(C)S(=O)(=O)c1cn(C)cn1)[C@H](C)CN([C@@H](C)CO)C2=O	1	17	0.05	/
COc1c(N2CCNC(C)C2)c(F)cc2c(=O)c(C(=O)O)cn(C3CC3)c12 (stereo unspecified)	-22	-24	0.1	/
COc1ccc(S(=O)(=O)N(C)C[C@H]2Oc3ccc(NC(=O)Nc4ccccc4)cc3C(=O)N([C@@H](C)CO)C[C@@H]2C)cc1	6	/	0.8	0.1
COc1ccc(S(=O)(=O)N(C)C[C@H]2Oc3ccc(NS(=O)(=O)c4c(C)noc4C)cc3CC(=O)N([C@@H](C)CO)C[C@@H]2C)cc1	5	3	0.083	/
Cc1cc(C(=O)Nc2cccc3c2O[C@@H](CN(C)C(=O)NC(C)C)[C@@H](C)CN([C@@H](C)CO)C3=O)n(C)n1	16	-77	-0.17	2.5
CC(C)(C)SC(=O)c1cccnc1SCCS(=O)(=O)c1cccc(C(F)(F)F)c1	-13	51	-0.23	0.8
Cc1noc(C)c1NC(=O)Nc1cccc2c1O[C@H](CN(C)Cc1ccccc1)[C@@H](C)CN([C@@H](C)CO)C2=O	-5	16	-0.48	0.0
Cc1noc(C)c1S(=O)(=O)Nc1ccc2c(c1)C(=O)N([C@H](C)CO)C[C@H](C)[C@@H](CN(C)Cc1ccc(C(F)(F)F)cc1)O2	-1	0	0.23	-3.7
CNC(=O)CN(c1cc([N+](=O)[O-])ccc1OC)S(C)(=O)=O	-3	/	/	-0.8
COc1ccc(S(=O)(=O)N(C)C[C@H]2OCCCC[C@@H](C)Oc3ccc(NS(=O)(=O)c4ccc(Cl)cc4)cc3C(=O)N([C@H](C)CO)C[C@@H]2C)cc1	24	35	-0.23	/
C[C@@H]1CN([C@H](C)CO)C(=O)Cc2cc(NC(=O)NC3CCCCC3)ccc2O[C@H]1CN(C)S(=O)(=O)c1cn(C)cn1	1	3	0.14	1.2
C[C@@H]1CCCCO[C@H](CN(C)Cc2ccncc2)[C@@H](C)CN([C@H](C)CO)C(=O)c2cc(NS(=O)(=O)c3cn(C)cn3)ccc2O1	-12	-13	0.078	/
CC(C)NC(=O)N(C)C[C@@H]1Oc2ccc(NC(=O)Nc3ccc(C(F)(F)F)cc3)cc2C(=O)N([C@H](C)CO)C[C@H]1C	-4	/	0.58	-0.2
C[C@H]1CN([C@@H](C)CO)C(=O)c2cc(NS(=O)(=O)c3ccc(Cl)cc3)ccc2O[C@@H]1CN(C)Cc1ccc(-c2ccccc2)cc1	-4	/	0.042	/
C[C@@H]1CCCCO[C@H](CN(C)C(=O)c2ccccc2)[C@@H](C)CN([C@H](C)CO)C(=O)c2cc(NS(=O)(=O)c3ccccc3)ccc2O1	-7	-24	0.044	1.3
C[C@@H]1CN([C@@H](C)CO)C(=O)c2cc(NC(=O)Nc3ccc(F)cc3)ccc2O[C@H]1CN(C)S(=O)(=O)c1cn(C)cn1	8	-78	0.35	/
C/C=C1/CN2CCC1C(CO)(C(=O)OC)c1[nH]c3ccccc3c1C2 (stereo unspecified)	/	-10	0.48	/
C[C@H](CO)N1C[C@H](C)[C@H](CN(C)Cc2ccc(Cl)c(Cl)c2)Oc2c(NC(=O)C3CC3)cccc2C1=O	-5	-16	-0.084	-1.0
Cc1ccc(S(=O)(=O)N(C)C[C@@H]2Oc3ccc(NC(=O)C4CCCCC4)cc3CC(=O)N([C@@H](C)CO)C[C@@H]2C)cc1	0	20	0.28	1.7
C[C@H]1CN([C@@H](C)CO)C(=O)c2cc(NC(=O)Cc3cn(C)c4ccccc34)ccc2O[C@H]1CN(C)S(=O)(=O)c1ccc(F)cc1	20	18	-0.27	-0.5
C[C@@H]1CN([C@H](C)CO)C(=O)c2cc(NC(=O)Cc3ccccc3)ccc2O[C@H]1CN(C)Cc1ccc(Oc2ccccc2)cc1	1	/	-0.41	2.1
O=C(NC(CO)Cc1ccccc1)c1ccccc1 (stereo unspecified)	-4	14	-0.36	-0.4
COc1cccc(/C=N/n2cnnc2)c1	-12	-15	0.5	5.4
CCCOC(=O)C1=C(C)N(CC)C(=O)NC1c1ccccc1Cl (stereo unspecified)	13	7	-0.13	-0.4
C[C@H]1CN([C@@H](C)CO)C(=O)c2cc(NC(=O)CCN3CCOCC3)ccc2O[C@@H]1CN(C)C(=O)Nc1ccc(C(F)(F)F)cc1	-19	/	-0.0087	0.8
CNC[C@H]1Oc2ccc(NC(=O)Nc3c(C)noc3C)cc2CC(=O)N([C@H](C)CO)C[C@H]1C	-8	-16	0.036	/
Cc1noc(C)c1S(=O)(=O)N(C)C[C@@H]1Oc2ccc(NS(=O)(=O)c3cn(C)cn3)cc2CC(=O)N([C@@H](C)CO)C[C@@H]1C	-5	/	-0.8	0.7
COc1ccc(C(=O)Nc2ccc(C)c(C)c2)cc1	48	-253	-0.16	-0.7
O=C(COc1cccc([N+](=O)[O-])c1)Nc1cccc(I)c1	-16	/	/	-1.1
C[C@@H]1CCCCO[C@@H](CN(C)Cc2ccc(C(=O)Nc3ccccc3N)cc2)[C@@H](C)CN([C@H](C)CO)C(=O)c2cc(NS(C)(=O)=O)ccc2O1	-9	/	-0.21	0.6
COc1ccc(S(=O)(=O)Nc2cccc3c2O[C@@H](CN(C)C(=O)NC(C)C)[C@@H](C)CN([C@H](C)CO)C3=O)cc1	-6	-48	-0.0049	0.7
C[C@H]1CN([C@@H](C)CO)C(=O)c2cc(NC(=O)Cn3cnnn3)ccc2O[C@@H]1CN(C)CC1CCCCC1	0	/	0.8	1.7
C[C@@H]1CN([C@H](C)CO)C(=O)c2cc(NC(=O)Nc3cccc4ccccc34)ccc2O[C@@H]1CN(C)C(=O)Nc1ccc(C(F)(F)F)cc1	0	-17	0.33	/
COc1ccc(CN(C)C[C@@H]2Oc3c(NC(=O)Nc4ccccc4)cccc3C(=O)N([C@H](C)CO)C[C@@H]2C)cc1	11	-31	0.061	0.9
CC(=O)C(Sc1nc(N2CCOCC2)nc(N2CCOCC2)n1)C(=O)Nc1ccccc1 (stereo unspecified)	-14	/	/	-2.5
CC(C)NC(=O)Nc1ccc2c(c1)C(=O)N([C@H](C)CO)C[C@H](C)[C@H](CN(C)C)OCCCC[C@@H](C)O2	-13	/	-0.16	1.2
CC/C=C\C/C=C\C/C=C\CCCCCCCC(=O)O	-4	?	-0.21	6.7

Profiles, looked up by structure. Screens in order: MITF inh	Shh pathway inh	YB-1 expression	PD-1 reversal
Entry for CC/C=C\C/C=C\C/C=C\CCCCCCCC(=O)O → -4	?	-0.21	6.7
Entry for C[C@H](CO)N1C[C@H](C)[C@H](CN(C)Cc2ccc(Cl)c(Cl)c2)Oc2c(NC(=O)C3CC3)cccc2C1=O → -5	-16	-0.084	-1.0
Entry for C[C@@H]1CN([C@H](C)CO)C(=O)c2cc(NC(=O)Cc3ccccc3)ccc2O[C@H]1CN(C)Cc1ccc(Oc2ccccc2)cc1 → 1	/	-0.41	2.1
Entry for CC(C)NC(=O)Nc1ccc2c(c1)C(=O)N([C@H](C)CO)C[C@H](C)[C@H](CN(C)C)OCCCC[C@@H](C)O2 → -13	/	-0.16	1.2

Remaining list, next part.
SMILES	MITF inh	Shh pathway inh	YB-1 expression	PD-1 reversal
C[C@@H]1CN([C@H](C)CO)C(=O)Cc2cc(NC(=O)NC3CCCCC3)ccc2O[C@H]1CN(C)Cc1ccc(C(F)(F)F)cc1	20	22	0.17	/
C[C@H]1CN([C@@H](C)CO)C(=O)Cc2cc(NC(=O)Nc3cccc4ccccc34)ccc2O[C@@H]1CN(C)Cc1ccc(C(=O)O)cc1	3	-22	0.36	3.2
COc1ccc(NC(=O)Nc2ccc3c(c2)CC(=O)N([C@@H](C)CO)C[C@H](C)[C@H](CN(C)Cc2ccc4c(c2)OCO4)O3)cc1	-9	-16	-0.061	/
C[C@H](CO)N1C[C@H](C)[C@H](CN(C)C(=O)Nc2ccc3c(c2)OCO3)Oc2ccc(NC(=O)C3CC3)cc2CC1=O	-3	-22	-0.3	-0.1
CC1=CC(=O)CC2C1(C)CCC(C)C2(C)CCC(C)CC(=O)O (stereo unspecified)	4	-13	-0.054	0.5
COc1ccc(N(C(=O)C2CCCCC2)S(=O)(=O)c2cc(OC)ccc2OC)cc1	3	/	/	-1.8
C[C@@H]1CN([C@@H](C)CO)C(=O)c2cccc(NC(=O)c3ccncc3)c2O[C@H]1CN(C)C(=O)NC1CCCCC1	-7	30	0.26	/
Cc1csc2sc(-c3ccnc(SCc4ccccc4)n3)c(C)c12	-5	-2	-0.0049	1.0
COc1ccc(NC(=O)Nc2ccc3c(c2)C(=O)N([C@H](C)CO)C[C@H](C)[C@H](CN(C)Cc2ccc4c(c2)OCO4)O3)cc1	8	/	0.23	/
COc1ccc(S(=O)(=O)N(C)C[C@@H]2Oc3ccc(NS(=O)(=O)c4ccc(F)cc4)cc3C(=O)N([C@@H](C)CO)C[C@@H]2C)cc1	7	/	19*	-2.5
